High-throughput results: PubChem, National Center for Advancing Translational Sciences (NCATS)
Rango complex inh = prevents formation of the Rango-importin beta complex. Q14974. Rango CFP/YFP FRET sensor + importin beta, 45 min. Potency, µM (titrated, usually from 92.2 µM), inactives show top-dose inhibition of complex formation. 340,000 compounds, 0.031% hits. AID 540263; active = rising FRET ratio curve, often small or poorly fitted; inconclusive = mostly compound fluorescence or quenching in the first reads; inactive = flat curves in all reads;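 also: potency is read from the fitted curve at half-maximal effect; 0% = DMSO wells and 100% = buffer wells lacking importin beta; nearly all actives have a fitted effect of over 15% in size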
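FRET biosensor (snurportin 1 IBB flanked by EYFP and cerulean), 50 nM, with compound 5 min, then 0.125 microM importin beta in PBS, 1 mM DTT, 0.02% Tween-20, 0.1% BSA. CFP/YFP ratio read after 45 min at room temperature; pre-read flags interference.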
Rango release inh = prevents RanGTP from dissociating the Rango-importin beta complex. O95149+P62826. Biochemical FRET Rango-importin beta, RanGTP-induced dissociation. Potency, µM (series often up to 46.1 µM), without a hit: at the top dose activity change, negative = inhibition. 340,000 compounds, 0.071% hits; active means falling FRET ratio curve, often poorly fitted, with flat reads before Ran was added; inconclusive means other falling curves, or compound fluorescence or quenching; inactive means flat or rising ratio curve;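 also: potency is read from the fitted curve at half-maximal effect; % of control where 0% means no effect; nearly all actives have a fitted effect of over 45% in size; -100% = wells without RanGTP and RCC1; the record marks most hits as doubtful in a second field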
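Rango (0.1 uM)–importin beta (0.25 uM) complex; RanGTP-RCC1 trigger; 45 min RT; CFP/YFP FRET read.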
miR-21 FLuc = miR-21 reporter, rising signal. Potency, µM (highest dose often 38.3 µM), inactives show at the top dose reporter change, positive = more light. 340,000 tested, under 10 active. HeLa miR-21 FLuc reporter, luciferase, 48 h. AID 2288; active = well fitted rising curve with a large enough effect; inconclusive = small, poorly fitted or top-dose-only effect; inactive = no such curve, though single readings can be large or run the other way;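 also: % of control where 0% means no effect; miR-21 action dims this reporter so a rising signal means less miR-21 action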
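HeLa miR-21-FLuc reporter line, endogenous miR-21; 2000 cells/well in DMEM/10% FBS; compound titration up to ~40uM final, 48 h, 37 degree Celsius; luciferase detection reagent, 15 min lysis, CCD luminescence.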
GLA inh pH 4.5 = blocks human alpha-galactosidase A at pH 4.5. P06280. purified enzyme, 4-MU-alpha-Gal fluorescence, pH 4.5. activity change, negative = inhibition, % at 105 µM. 230,000 tested, under 10 active; inconclusive = small, poorly fitted or top-dose-only inhibition, or a rising curve; inactive = flat fitted curve, though single readings scatter; no compound was filed as active;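 also: 0% = full activity with enzyme and -100% = basal without enzyme; dose as in the result columns while the protocol names 77 µM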
Target sequence (P06280 whole entry, looked up): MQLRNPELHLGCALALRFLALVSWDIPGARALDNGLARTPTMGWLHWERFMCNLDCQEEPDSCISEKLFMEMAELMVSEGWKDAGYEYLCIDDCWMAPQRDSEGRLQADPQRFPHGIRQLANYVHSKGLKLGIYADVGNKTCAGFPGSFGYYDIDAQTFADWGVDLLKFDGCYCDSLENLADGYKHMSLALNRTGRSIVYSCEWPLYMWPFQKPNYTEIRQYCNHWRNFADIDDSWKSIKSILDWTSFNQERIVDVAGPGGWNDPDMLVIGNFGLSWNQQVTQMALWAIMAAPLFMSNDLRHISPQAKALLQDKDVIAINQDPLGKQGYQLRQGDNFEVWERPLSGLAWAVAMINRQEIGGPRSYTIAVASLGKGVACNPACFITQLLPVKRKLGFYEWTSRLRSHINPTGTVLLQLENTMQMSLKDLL
Starred values were filed as active, the others as inactive; u = inconclusive; x = no result given; & = joins results of further samples. These rows are one share of the data; count on the stated rates, not on these rows.

SMILES | Rango complex inh | Rango release inh | miR-21 FLuc | GLA inh pH 4.5
COc1ccc(/C=C/C(=O)N2CCN(c3ccccn3)CC2)cc1OC | -0.3% | -5% | -4% | x
CCOC(=O)c1sc(=S)n(Cc2ccccc2)c1N | 2.8% | -13% | -20% | -13
O=C1C[C@H](NC(=O)OCc2ccccc2)CO1 | 0.3% | -8% | x | x
Clc1ccc(-c2noc(CCCc3ccccc3)n2)cc1 | 0.5% | 2% | -14% | -2
Cc1ccc(C)c(OCCn2nnc3ccccc32)c1 | -0.3% | 0% | -43% | x
Cc1oc(C(C)(C)C)cc1C(=O)Nc1ccc(C(=O)O)cc1 | 0.8% | 5% | -68% | -5
CN1C(=O)C2(c3ccccc31)N(C)CC(c1ccccn1)C21SC(=S)N(Cc2ccco2)C1=O (stereo not given) | 2.9% | -1% | 12% | -3
CCC(C)(C)n1nnnc1CN(Cc1cc2cc(OC)c(OC)cc2[nH]c1=O)C1CCCC1 | u | -16% | 0% | 8
COc1ccc(CNC(=O)COC(=O)/C=C/c2cccc(Br)c2)cc1OC | -0.1% | 7% | -4% | 3
Cc1ccc(-n2c(CNc3cccc(Cl)c3)n[nH]c2=S)cc1 | -0.9% | 12% | -14% | 10
COc1ccc(C(=O)Nc2ccc(-c3nnn(CC(=O)N4CCN(C(=O)c5ccco5)CC4)n3)cc2)cc1 | 1.0% | -2% | -2% | 0
Cc1ccc(CCNC(=O)NC(C)(C)C)cc1 | -3.7% | 3% | -33% | -3
Cc1ccc(N=C2SC(C(=O)NCCc3ccccc3)CC(=O)N2C)cc1C (stereo not given) | -0.2% | 8% | -1% | 1
CCOc1ccc2[nH]c(=O)c(CN(Cc3ccccc3OC)C(=O)c3ccccc3)cc2c1 | -0.4% | 3% | 0% | 6
O=C(CSc1nnc(-c2ccncc2)n1Cc1ccco1)OC1CCCCC1 | -1.0% | 0% | -5% | -1
CN1CCN(C(=S)c2cn(Cc3ccc(Br)cc3)c3ccccc23)CC1 | 0.0% | 1% | -2% | -10
COc1ccc(CCNC(=O)CCS(=O)(=O)c2ccc3c(c2)NC(=O)C(C)S3)cc1OC (stereo not given) | -2.1% | 5% | 1% | x
O=C(COC(=O)CN1C(=O)NC2(CCCC2)C1=O)Nc1c(Cl)cccc1C(F)(F)F | 0.7% | 0% | x | x
CC1Cc2ccccc2N1C(=O)CN1CCN(Cc2ccccc2)CC1 (stereo not given) | 3.3% | 1% | -5% | x
Cc1cc(CNC(=O)COC(=O)Cn2[nH]c(=O)c3ccccc3c2=O)cc(C)c1O | -0.1% | -4% | x | x
NC(=O)C1(N2CCCCC2)CCN(c2ccc3nnc(-c4ccccc4)n3n2)CC1 | 0.3% | 17% | -14% | -4
CCOC(=O)c1ccccc1NC(=O)COc1coc(CN2CCc3ccccc32)cc1=O | 0.0% | -14% | x | x
Cc1cc(NC(=O)CC2(CC(=O)O)CCCC2)n(C)n1 | -0.7% | -13% | 6% | 6
CCc1ccc(CN2C(=O)CCC2(C)C(=O)NC2CCCC2)cc1 (stereo not given) | -1.4% | 3% | -5% | -10
CC(C)=CCN1CCN(Cc2ccc(Sc3nncn3C)o2)CC1CCO (stereo not given) | -4.2% | -9% | -3% | 2

Next part; it opens with the five that closed the last part.
SMILES | Rango complex inh | Rango release inh | miR-21 FLuc | GLA inh pH 4.5
NC(=O)C1(N2CCCCC2)CCN(c2ccc3nnc(-c4ccccc4)n3n2)CC1 | 0.3% | 17% | -14% | -4
CCOC(=O)c1ccccc1NC(=O)COc1coc(CN2CCc3ccccc32)cc1=O | 0.0% | -14% | x | x
Cc1cc(NC(=O)CC2(CC(=O)O)CCCC2)n(C)n1 | -0.7% | -13% | 6% | 6
CCc1ccc(CN2C(=O)CCC2(C)C(=O)NC2CCCC2)cc1 (stereo not given) | -1.4% | 3% | -5% | -10
CC(C)=CCN1CCN(Cc2ccc(Sc3nncn3C)o2)CC1CCO (stereo not given) | -4.2% | -9% | -3% | 2
O=C(O)CCCC(=O)Nc1ccccc1Oc1ccccc1 | -2.2% | -3% | -4% | -6
CCN1CCc2c(sc(NC(=O)c3ccc(S(=O)(=O)N4CC(C)OC(C)C4)cc3)c2C(N)=O)C1 (stereo not given) | u | u | -2% | x
O=C(N/N=C\c1ccc(Cl)s1)c1cccs1 | -0.1% | -4% | -6% | -2
CC[C@]12c3[nH]c4cc(-c5ccco5)ccc4c3CCN1C(=O)[C@@H](CC(=O)NC/C=C(\C)CCC=C(C)C)C[C@@H]2C(=O)N1CCN(C(=O)c2ccco2)CC1 | u | -11% | x | x
COc1ccc(NC(=S)Nc2ccccc2SC)c(OC)c1 | 0.2% | -11% | -3% | -3
N#CC1(Cc2ccccc2Cl)c2ccccc2C=CN1C(=O)c1ccccc1 (stereo not given) | -2.0% | 10% | 11% | 3
Cc1c(Cl)c([N+](=O)[O-])nn1CCCC(=O)N1CCN(c2ccccc2)CC1 | 4.0% | 9% | -4% | -6
O=C(CN1CCN(S(=O)(=O)N2CCCCC2)CC1)Nc1ccc(Cl)c(Cl)c1 | -0.5% | -13% | 18% | x
O=C1CCCN2N=C(SCC(=O)Nc3cccc(C(F)(F)F)c3)SC2=N1 | 0.3% | -4% | 20% | x
CCCCOC(=O)c1ccc(Nc2ncnc3nc[nH]c23)cc1 | 0.4% | 7% | -36% | 2
Cc1ccccc1CN(C)C(=O)c1ccc2ccccc2n1 | -1.0% | 4% | -8% | x
Cc1ccc(C(C(=O)NC2CCCC2)N(Cc2ccc(F)cc2)C(=O)c2snc(C(N)=O)c2N)o1 (stereo not given) | -3.5% | -7% | 10% | x
CCOc1ccc(CCNC(=O)c2ccc(S(=O)(=O)N3CCCC3)cc2)cc1OCC | 5.3% | 5% | x | x
O=C(NCc1ccc(Cl)cc1)c1ccc2c(=O)n(CC3CCCO3)c(=S)[nH]c2c1 (stereo not given) | -0.1% | -4% | 1% | x
CCOC(=O)N1CCc2c(sc3ncn(Cc4ccc(F)cc4)c(=O)c23)C1 | 3.0% | -5% | 1% | -5
CCc1nc2ccc(C(=O)NCCCN3CCN(c4ccc(F)cc4)CC3)cc2nc1CC | 0.3% | -4% | 1% | x
Cc1ccc(S(=O)(=O)Nc2ccc3cn[nH]c3c2)c(C)c1 | -1.3% | -7% | x | x
COc1ccc(S(=O)(=O)CCC(=O)NCc2ccc(C)o2)cc1 | -1.6% | 17% | 1% | x
CCOC(=O)c1c(NC(=O)CSc2nnc(CNc3ccc(F)cc3)o2)sc(C(C)=O)c1C | u | u | -11% | -7
Cn1c2c(c(=O)n(C)c1=O)C(NS(=O)(=O)c1ccc(Cl)cc1)(C(F)(F)F)C(=O)N2 (stereo not given) | u | -3% | -1% | -4
Cc1cc2c3c([nH]c2cc1S(=O)(=O)N1CCC2(CC1)OCCO2)CCCC3=O | -1.0% | 0% | 15% | x
Cc1nc(C)n(CC(=O)N2CCCC(C(=O)c3ccc(Cl)cc3C)C2)n1 (stereo not given) | 0.7% | 0% | 0% | -10
CCOC(=O)N1CCN(c2c(NCCN3CCN(Cc4ccccc4)CC3)c(=O)c2=O)CC1 | 0.0% | 0% | 0% | 4
Cn1ncc2cc(NC(=S)NC(=O)c3ccccc3)ccc21 | 2.6% | u | -23% | 2
Clc1ccc(C2[C@H]3CN(Cc4cccnc4)[C@H](c4ccccc4)C34CC2(c2cccnc2)C4)cn1 (stereo not given in full) | -0.6% | 1% | 8% | -8&1
Next section.
SMILES | Rango complex inh | Rango release inh | miR-21 FLuc | GLA inh pH 4.5
CC(C)Oc1ccc(N2CC(C(=O)Nc3ccccn3)CC2=O)cc1 (stereo not given) | 0.0% | 16% | 1% | -3
Clc1ccc(-c2nnc3sc(-c4ccc(Br)o4)nn23)c(Cl)c1 | u | 20% | -2% | -14
C=CCNC(=O)c1ccc(OC)cc1 | 2.7% | 10% | -1% | -3
O=c1oc(-c2ccccc2Cl)nc2ccsc12 | 4.1% | 7% | -4% | 0
CCOC(=O)CN1C(=O)C2Cc3ccccc3CN2C1=S (stereo not given) | -1.5% | 2% | -12% | -4
CCCNC(=O)N1c2ccccc2Sc2ccccc21 | 0.8% | -16% | 6% | 3
CCOC(=O)CC(C#N)c1cn(C)c2ccccc12 (stereo not given) | 0.5% | -4% | -7% | 0
CCCCNC(=O)CCCCn1c(=S)[nH]c2c([nH]c3ccc(OC)cc32)c1=O | -1.3% | 0% | 0% | 7
CC(=O)N1CCN(S(=O)(=O)c2cccc(C(=O)Nc3nc4ccccc4[nH]3)c2)CC1 | 0.4% | 4% | -2% | 1
N#CCC(=O)Nc1ccc(C(=O)NNC(=S)NC2CCCCC2)cc1 | 0.5% | 12% | x | x
CCc1nc2c(sc3nc4c(cc32)COC(C)(C)C4)c(=O)n1Cc1ccco1 | -1.8% | -6% | 1% | -14
CCOC(=O)C1(Cc2ccccc2C)CCCN(C(=O)CCc2c(C)noc2C)C1 (stereo not given) | 4.8% | -1% | 8% | x
COCCn1c(SCC(=O)c2[nH]c(C)c(C(C)=O)c2C)nc2ccccc2c1=O | 2.2% | 28% | -7% | -7
CCn1c(/C=C/c2ccc(O)c(O)c2)nc2ccccc2c1=O | u | u | 0% | x
CCN(CC)CCCN1CC(O)=C(c2nc3ccccc3s2)C1=N | 0.0% | -9% | -6% | 5
Cc1ccc(C)c(N2CCN(C(=O)C34CC5CC(C3)CC(n3nnc(C)n3)(C5)C4)CC2)c1 | -0.3% | -8% | 2% | -4
O=C(Cc1ccccc1)N1CCN=C1SCc1ccc([N+](=O)[O-])cc1 | -1.9% | -7% | 2% | -10
N#C/C(=C\C=C\c1ccccc1)c1nc(-c2ccc3c(c2)OCO3)cs1 | u | -19% | -5% | -15
COc1ccccc1N(C)S(=O)(=O)c1ccc(C(=O)NCc2ccc3c(c2)OCO3)cc1 | u | 1% | 11% | -7
COc1ccc(CNc2ccc3c(c2)nc(C)n3C)cc1 | -2.4% | -16% | -37% | -3
CCOC(=O)c1c(C)[nH]c(C)c1C(=O)COC(=O)c1ccc([N+](=O)[O-])s1 | -1.6% | -15% | x | x
COc1ccc(OCC(=O)N/N=C(\CCC(=O)O)c2cccs2)cc1 | -1.6% | 3% | -8% | -2
Cc1ccc(N2C3=C(C(=O)CC(C)(C)C3)C(c3cn(C)nc3C)C3=C2CC(C)(C)CC3=O)cc1 | u | u | x | x
CCCCCCCC(=O)N1c2ccccc2NC(=O)C1CC(=O)Nc1ccc(C(=O)O)cc1 (stereo not given) | 1.0% | -20% | 0% | 6
CN(CC(=O)Nc1ccc(F)cc1)C(=O)COC(=O)Cc1c(F)cccc1Cl | -0.6% | 6% | x | x

Exported with two lines to a compound: entries from further up
Results follow in this order: Rango complex inh	Rango release inh	miR-21 FLuc	GLA inh pH 4.5
> CCCCNC(=O)CCCCn1c(=S)[nH]c2c([nH]c3ccc(OC)cc32)c1=O
 : -1.3%	0%	0%	7
> CC(=O)N1CCN(S(=O)(=O)c2cccc(C(=O)Nc3nc4ccccc4[nH]3)c2)CC1
 : 0.4%	4%	-2%	1
> N#CCC(=O)Nc1ccc(C(=O)NNC(=S)NC2CCCCC2)cc1
 : 0.5%	12%	x	x

Next section.
SMILES | Rango complex inh | Rango release inh | miR-21 FLuc | GLA inh pH 4.5
COc1ccccc1CNC(=O)/C=C/C(=O)O | 0.2% | -3% | -2% | -13
CCN(CC)CCN1C(=O)C(O)=C(C(=O)c2cc3cccc(OC)c3o2)C1c1cccs1 (stereo not given) | 3.1% | 1% | u | -17
NC(=O)CCS(=O)(=O)CCN1CCN(S(=O)(=O)c2ccc3c(c2)CCC3)CC1 | 1.2% | 2% | x | x
O=C(CN(Cc1cccs1)C(=O)CSc1nnc(COc2ccccc2)o1)NC1CCCC1 | -1.2% | 8% | -4% | 0
CCOc1ccc(N(C)c2ccc(/C=C3/SC(=S)NC3=O)cc2)cc1 | u | u | -1% | x
COc1ccc(/C=N/NC(=O)C2C(=O)NCC2c2ccccc2)c(OC)c1 (stereo not given) | -2.4% | 6% | -7% | -1
O=C(Cn1cnc2ccccc21)c1ccc(Cl)cc1 | 4.3% | -14% | -14% | x
C/C(=N\NC(=O)c1cnccn1)c1ccc([N+](=O)[O-])cc1 | 0.4% | 14% | -5% | -11
CC1(C)CC(NC(=O)c2ccccc2)CC(C)(C)N1 | 3.1% | -8% | 1% | x
Cc1onc(-c2ccccc2Cl)c1C(=O)N1CCN(C/C=C/c2ccccc2)CC1 | 0.2% | 8% | 7% | 0
